Menin-MLL FL inh: inhibitors of human menin-MLL interaction, wild-type MLL peptide | Fluorescence polarization, fluorescein-MLL peptide displacement from menin | FP activity change, % at 61.4 µM | 290,000 tested, under 10 active | AID 1766; inconclusive = falling polarisation curve, or a change in total fluorescence; inactive = total fluorescence flat and polarisation flat or rising; no compound was filed as active; the % refers to the polarisation; negative = inhibition;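 also: % of control where 0% means no effect; inhibitors lower the polarisation; unlabelled MLL peptide was the positive control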
ClpP mod: qHTS Assay for Activators of ClpP; Potency, µM (top dose mostly 57.5 µM), inactives show at the top dose activity change, negative = active; ATP-dependent Clp protease proteolytic subunit (Bacillus subtilis (strain 168)), P80244; 340,000 tested, 1.9% active; purified B. subtilis ClpP, FRET peptide cleavage, 20 min; active = well fitted falling curve with a large enough effect; inconclusive = small, poorly fitted or top-dose-only effect; inactive = no such curve, though single readings can be large or run the other way; also: potency is read from the fitted curve at half-maximal effect; the source files actives as falling curves though it sought activators and does not explain the sign; nearly all actives have a fitted effect of over 65% in size; many hits overshoot -100%
Target sequence (P80244 whole entry, looked up): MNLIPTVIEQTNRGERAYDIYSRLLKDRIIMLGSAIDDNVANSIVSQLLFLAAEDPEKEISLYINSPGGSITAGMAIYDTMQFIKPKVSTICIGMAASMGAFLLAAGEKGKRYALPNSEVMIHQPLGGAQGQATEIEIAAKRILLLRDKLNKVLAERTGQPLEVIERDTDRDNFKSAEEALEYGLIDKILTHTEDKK
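ClpP 10 microg/mL final, pH 8 Tris/KCl buffer with BSA, glycerol, Tween-20; compound pinned in; FRET-FV substrate; RT 20 min; Ex320/Em430; ΔFRET vs ADEP 5.8 microM, DMSO, no enzyme.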
TRPML1 blocker: human mucolipin-1 channel inhibition; Q9GZU1; TRPML1-inducible cells, Ca2+ dye fluorescence, FDSS; active compounds read low; inhibition of EC80 agonist-evoked calcium signal; activity change, negative = inhibition, % (test concentration not listed); 390,000 tested, 0.02% active; AID 624415; in the data active means activity change below about -50%; inconclusive means about -30% to -50%; inactive means above about -30%;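 also: stimulus is agonist 54-4 at its EC80 concentration; % is scaled to controls: 0 for no effect and ±100 for the full control effect; compound concentration not given in the record; the text of the record puts the active cut at -80%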
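Calcium fluorescence in TRPML1-DL cells induced overnight with Tet: a 110 s read after compound pin addition, then a 110 s antagonist read after challenge with 54-4 at 4 uM final (EC80).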
TRPML1 ag: human mucolipin-1 channel agonism; Q9GZU1; TRPML1-expressing cells, Ca2+ dye fluorescence, FDSS; host cell line not named in the record; reference of the full effect not given here; activation, % (test concentration not listed); 410,000 tested, 0.12% active; AID 624414; in the data active = activation above about 50%; inconclusive = about 30% to 50%; inactive = below about 30%; also: 0% is about no effect; the text of the record puts the active cut at 80%
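Kinetic FDSS Ca2+ read in Tet-induced TRPML1-DL cells (ABD Ca8 dye plus quencher, 45-90 min RT loading): baseline, then compound, then 110 s agonist window; EC80 agonist 54-4 at 4uM final added afterwards for a 110 s antagonist window.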
TRPV1 PAM: potentiators of human vanilloid receptor 1 (TRPV1); TRPV1-expressing cells, Fluo-8 calcium influx, capsaicin EC20 potentiation; host cell line not named in the record; control for the full effect not named in the record; potentiation, % at 8.33 µM; AID 540277; 320,000 tested, 0.02% active; Q8NER1; active means potentiation above 80%; inconclusive means 30% to 80%; inactive means below 30%; also: 0% is about no effect
Target sequence (Q8NER1 whole entry, looked up): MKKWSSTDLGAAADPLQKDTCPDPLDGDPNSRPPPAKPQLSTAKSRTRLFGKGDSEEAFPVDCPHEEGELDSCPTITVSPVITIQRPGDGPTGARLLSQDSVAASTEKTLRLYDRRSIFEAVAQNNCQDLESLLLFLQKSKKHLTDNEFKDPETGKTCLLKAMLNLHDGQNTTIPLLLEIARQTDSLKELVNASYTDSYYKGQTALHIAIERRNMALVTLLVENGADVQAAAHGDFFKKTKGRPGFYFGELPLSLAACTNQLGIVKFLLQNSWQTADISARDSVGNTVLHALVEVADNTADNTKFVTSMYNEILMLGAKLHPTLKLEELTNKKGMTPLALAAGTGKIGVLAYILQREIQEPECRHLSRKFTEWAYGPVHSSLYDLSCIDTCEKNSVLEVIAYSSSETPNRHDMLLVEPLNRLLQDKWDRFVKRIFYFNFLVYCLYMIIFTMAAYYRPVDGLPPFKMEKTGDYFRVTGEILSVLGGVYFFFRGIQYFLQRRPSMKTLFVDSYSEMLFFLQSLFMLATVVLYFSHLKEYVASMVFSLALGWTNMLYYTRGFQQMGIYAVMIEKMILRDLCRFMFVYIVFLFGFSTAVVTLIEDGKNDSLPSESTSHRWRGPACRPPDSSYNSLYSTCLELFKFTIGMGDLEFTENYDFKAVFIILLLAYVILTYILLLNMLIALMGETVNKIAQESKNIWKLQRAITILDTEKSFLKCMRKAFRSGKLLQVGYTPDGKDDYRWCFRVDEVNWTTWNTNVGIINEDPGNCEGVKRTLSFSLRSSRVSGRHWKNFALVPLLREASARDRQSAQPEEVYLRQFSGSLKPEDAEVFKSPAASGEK
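Fluo-8 calcium influx in TRPV1-expressing cells, kinetic read (ex 480/em 520 nm). Compound added and read 3 min for agonist activity, followed by capsaicin at EC20 final and 2 min further read for enhancement.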
Sfp inh: Sfp phosphopantetheinyl transferase inhibition; Q9F4F7; Biochemical Sfp PPTase activity, qHTS; Potency, µM, for the others: max response, negative = inhibition, actives largely listed as inhibitors; 310,000 tested, 3.5% active; AID 1490; active = well fitted inhibition curve with a large enough effect; inconclusive = small, poorly fitted or top-dose-only effect, or another doubt; inactive = no such curve, though single readings can be large or run the other way;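 also: the enzyme is Sfp with the accession as filed and its product quenches rhodamine fluorescence; potency is read from the fitted curve at half-maximal effect; 0% = enzyme reaction without inhibitor and -100% = no enzyme wells; top concentration of the series not given in the record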
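Step 1, compound plus 15 nM Sfp-PPTase, 15 min, room temperature. Step 2, add rhodamine-CoA (5 uM) and BHQ-2-YbbR (12.5 uM). Step 3, read 525/598 nm fluorescence at 0 and 30 min.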
PINK1 expr mod: changes PINK1 expression | Potency, µM (top dose mostly 76.6 µM), for the others: top-dose activation (PINK1 increase), usual class: activators | PINK1 immunofluorescence, high-content cytometry, 24 h | AID 624263 | 410,000 tested, 0.2% active; active = well fitted activation curve with a large enough effect; inconclusive = small, poorly fitted or top-dose-only effect; inactive = flat fitted curve, though single readings scatter; cell line not stated here;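 also: potency is read from the fitted curve at half-maximal effect; % of control where 0% means no effect; nearly all actives have a fitted effect of over 65% in size; a mitochondrial uncoupler was the plate control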
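A stable cell line was treated with compounds at 5 concentrations for 24 hours, with CCCP as control. PINK1 levels and mitochondrial localization were measured by immunofluorescence with mitochondrial, cell and nuclear markers after fixation, read by laser-scanning cytometry.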
Starred values were filed as active, the others as inactive; ? = inconclusive; · = no result given; & = joins results of further samples; [ ] = dose if it differs, or a comment.

SMILES	Menin-MLL FL inh	ClpP mod	TRPML1 blocker	TRPML1 ag	TRPV1 PAM	Sfp inh	PINK1 expr mod
CCOC(=O)c1ccccc1NC(=O)C=C(C)C	6.0	-0.7%	-24.0	4.1	2.5	12.2%	3.8%
CC(C)(O)C#Cc1ccc(CN2CCCC(CO)(Cc3cccc(Cl)c3)C2)cc1 (stereo not given)	?	0.4%	-1.0	5.4	-3.9	3.0%	5.3%
CCOC(=O)C(=O)c1csc(NC(=O)COc2ccc(N(C)S(=O)(=O)c3ccc(F)cc3)cc2)n1	-2.3	1.2%	-16.0	0.6	21.1	9.5%	-1.4%
O=C(CCCn1c(=S)[nH]c2ccccc2c1=O)N1CCOCC1	-0.9	-1.1%	2.1	-0.1	0.0	-11.5%	5.9%[38.3 µM]
O=C1CCCc2cc(S(=O)(=O)N3CCCC(C(=O)Nc4ccc(F)c(Cl)c4)C3)ccc2N1 (stereo not given)	·	-1.1%	29.8	2.4	·	·	-1.3%
CCNC(=O)NC1c2ccccc2CSc2ccccc21 (stereo not given)	·	·	-4.7	-0.4	·	·	1.2%
Cc1ccc(NC(=O)COC(=O)COc2ccc3ccc(=O)oc3c2)cc1[N+](=O)[O-]	·	104.3%	3.4	-0.3	-10.9	·	-0.7%
COc1ccc(NC(=O)CSc2c3c(nc4ccccc24)CCC3)c(OC)c1	4.4	0.8%&1.2%	14.8&-12.8	1.4&-0.4	-4.9	4.7%	1.4%&3.3%
O=C(Cn1nnc(-c2ccc(Cl)cc2)n1)NCc1ccco1	0.1	-1.8%	-8.4	1.1	-14.6	-9.1%	2.1%
Cc1ccc(C)c(NC(=O)CCc2nnc3ccc(N4CCCC4)nn23)c1	·	0.0%	-13.1	1.0	-1.6	15.0%	-0.1%
COc1cccc(OC)c1OCCNCC1COc2ccccc2O1 (stereo not given)	5.7&-3.2	-0.5%	2.7	-0.9	·	9.9%&-3.4%	0.5%&0.0%
CC(=O)Oc1cccc(N2C(=O)c3ccc(C(=O)Nc4c[nH]c(=O)[nH]c4=O)cc3C2=O)c1	5.3	·	-0.6	-0.4	14.3	19.6%	0.2%

Arranged by the number under TRPML1 blocker (rising): some entries from above
canonical_smiles	Menin-MLL FL inh	TRPML1 blocker	Sfp inh	PINK1 expr mod
O=C(Cn1nnc(-c2ccc(Cl)cc2)n1)NCc1ccco1	0.1	-8.4	-9.1%	2.1%
O=C(CCCn1c(=S)[nH]c2ccccc2c1=O)N1CCOCC1	-0.9	2.1	-11.5%	5.9%[38.3 µM]
O=C1CCCc2cc(S(=O)(=O)N3CCCC(C(=O)Nc4ccc(F)c(Cl)c4)C3)ccc2N1 (stereo not given)	·	29.8	·	-1.3%

Next part.
SMILES	Menin-MLL FL inh	ClpP mod	TRPML1 blocker	TRPML1 ag	TRPV1 PAM	Sfp inh	PINK1 expr mod
C=CCc1ccccc1OCCSc1nc(-c2ccccc2F)nc2cc(=O)[nH]n12	·	3.9%	-1.5	0.8	·	·	2.3%
CCc1nnc(NC(=O)CSc2nnc(Cc3ccccc3)n2-c2ccc(OC)cc2)s1	-1.1	0.7%	-5.3	0.8	3.2	-2.8%	-4.9%
CCn1cc(Br)c(C(=O)Nc2nccs2)n1	0.5	-6.1%	-3.6	-0.4	11.2	7.1%	-0.6%
CCOc1ccc(Nc2c(S(=O)(=O)c3ccccc3)cnc3ccccc23)cc1	·	-0.3%	-6.5	0.8	·	·	3.4%
CC(NC(=O)CN1CCOCC1)c1ccc(F)cc1 (stereo not given)	3.4	-2.8%	-17.0	-0.4	16.0	18.1%	3.5%
COc1ccc(-c2nc(CS(=O)CC(=O)NCCc3ccc(Cl)cc3)c(C)o2)cc1OC (stereo not given)	·	?	-13.8	-0.5	·	·	-0.2%
CCCCCNC(=O)c1cccc(S(=O)(=O)N2CC3(C)CC2CC(C)(C)C3)c1 (stereo not given)	·	-0.7%	-10.9	0.4	-12.2	·	0.2%
CCOC(=O)c1cc(=O)cc(C(=O)OCC)o1	-0.2	0.1%	6.1	-0.4	-0.7	18.6%	0.0%
CN(Cc1nc2ccccc2c(=O)[nH]1)C(=O)c1cc2c(s1)CCCCC2	·	·	-5.0	0.3	·	·	-0.4%
O=C(CCc1ccccc1)NCCCNC(=O)CCc1ccccc1	·	1.8%	3.1	-0.2	18.5	·	1.3%
Cc1cccc(NC(=O)c2cnc3sccn3c2=O)c1	-3.8	?	-11.3	-0.3	-6.3	3.2%	1.7%
Cc1ccccc1N=Cc1cc2c(cc1[N+](=O)[O-])OCO2	3.8	-5.5%	11.5	0.5	11.2	-10.1%	5.3%
COc1ccc(NC(=O)CSc2nc3c(c(=O)n2-c2ccc(F)cc2)SCC3)cc1	-2.2	1.3%	60.8	-0.4	-1.1	11.4%	0.6%
Cc1cc(/C=N/NC(=O)C(=O)NCc2ccccn2)c(C)n1-c1cccc(Br)c1	-0.5	·	17.6	-0.9	-7.2	4.6%	0.5%
Cc1cnc(-c2nnc(N(C)C(=O)c3cccnc3)s2)cn1	-2.9	?	2.6	0.4	-3.0	0.1%	-1.0%
Cc1c(Cl)c([N+](=O)[O-])nn1CCCC(=O)Nc1cccc(Cl)c1	13.9	1.0%	-7.7	-0.3	5.7	-5.4%	-0.8%
COc1cc(Cl)c(CNC[C@H]2O[C@@H](n3ccc(=O)[nH]c3=O)[C@H](O)[C@@H]2O)c(Cl)c1O	·	-4.6%	4.8	-0.1	·	·	1.4%
O=C(NNC(=O)c1cccnc1SCc1cccc([N+](=O)[O-])c1)c1ccc(F)cc1	0.9	1.4%	-7.2	0.4	29.2	7.6%	0.0%
C#CCOCCOCCOCCNc1nc(N2CCN(C(=O)[C@H]([C@@H](C)CC)n3cc([C@@H](N)CC(C)C)nn3)CC2)nc(N2CCN(C(=O)[C@H](CCCCN)n3cc([C@@H](N)CO)nn3)CC2)n1	-1.3	1.3%	-12.3	0.2	-12.7	5.1%	0.9%
C=CCn1c(=O)c2ccccc2n2c(SCC(=O)Nc3sc(C(=O)N(CC)CC)c(C)c3C(=O)OCC)nnc12	1.2	-25.3%	4.7	3.0	-0.2	-12.3%	-0.6%
COc1ccccc1N1CCN(S(=O)(=O)c2ccc3c(c2)NC(=O)C(C)C(=O)N3)CC1 (stereo not given)	3.1	-0.5%	-4.4	0.7	3.6	7.1%	1.7%
O=C(CCSCc1ccccc1Cl)NCc1cccs1	0.0	·	46.8	1.8	-6.7	4.6%	2.3%
COc1cc(NC(=O)Cn2nc(C(F)(F)F)c3c2CCCC3)cc(OC)c1OC	1.4	2.0%&1.1%	-12.7&51.6	1.5&1.2	1.0	18.6%	9.9%&6.3%
COc1ccc(NC(=O)Cn2c(=O)n(Cc3ccco3)c(=O)c3ccccc32)cc1	4.5	8.1%	4.8	1.2	3.1	12.6%	3.7%
CC(C)(C)c1ccc(C(=O)N2CCN(c3nc4ccccc4o3)CC2)cc1	2.6	0.2%	2.1	0.5	·	21.0%	0.0%
CCCN1C2CCCC1CC(NC(=S)Nc1cccc(C)c1C)C2 (stereo not given)	-3.5	1.2%	0.0	0.1	-7.3	-3.3%	-0.4%
CNC(=O)c1ccc(NC(=O)Cc2ccc(S(=O)(=O)N3CCOCC3)s2)cc1	·	·	-3.6	0.3	-1.1	·	-1.4%
Cc1ccc(-c2nc(CS(=O)CC(=O)N3CCN(c4ccc(Cl)cc4)CC3)c(C)o2)cc1 (stereo not given)	·	-1.4%	6.7	1.9	·	·	-1.2%
CNS(=O)(=O)c1cn(CC(=O)N2CCN(c3cccc(Cl)c3)CC2)cc1S(=O)(=O)NC	·	0.4%	-0.5	0.3	·	·	-0.6%
Cc1ccc(/C=C(\C#N)C(=O)Nc2cccc(Cl)c2)o1	·	29.4%	8.2	1.2	·	·	-0.3%
N#C/C(=C(/O)COC(=O)COc1cccc(Br)c1)c1nc2ccccc2[nH]1	14.2	-1.6%	16.7	0.0	-8.0	6.3%	4.6%
COC(=O)c1ccc(COc2ccc(C(=O)c3ccccc3)cc2)o1	-0.5	-0.5%	29.5	3.1	3.3	-6.0%	0.8%
O=C(NC1CCCC1)C1CCC(=O)N1CCc1ccccc1 (stereo not given)	-2.1	-1.3%	14.9	1.8	0.3	-1.9%	-2.7%[38.3 µM]
Cn1cc([N+](=O)[O-])c(C(=O)Nc2ccc(C3CCCCC3)cc2)n1	3.8	1.0%	11.6	1.0	-0.1	-5.6%	-1.3%
CN1CCN(S(=O)(=O)c2ccc(N3CCN(C(=O)c4ccccc4)CC3)nc2)CC1	0.2	·	-0.1	0.0	9.7	10.3%	-0.5%
O=C(NNS(=O)(=O)c1ccc(Br)cc1)c1csnn1	-2.2	·	-11.5	-0.6	5.5	-9.9%	1.3%
CCCN1CCN(CCCNC(=O)c2cc3c(=O)oc4ccc(C)cc4c3s2)CC1	·	-9.8%	2.4	-0.2	8.1	4.3%	-0.4%
CCCn1nc(Oc2nc(NCC)nc(NC(C)C)n2)ccc1=O	3.9	-1.1%	9.8	0.4	-2.3	13.6%	4.7%
Cc1onc(-c2ccccc2)c1C(=O)NC1CCCCC1C (stereo not given)	·	0.3%	12.6	-1.2	·	·	1.9%
O=C(COc1ccc(Cl)cc1)OCC(=O)N1CCCC1	1.0	0.5%	10.9	0.9	2.1	3.0%	0.7%
CCOc1ccc(NC(=S)NN2CCN(C)CC2)cc1	0.9	2.8%	19.3	0.1	11.5	0.4%	3.1%
COc1cccc(C(=O)Nc2nnc(-c3ccc(F)cc3)o2)c1	-0.1	-1.9%	5.8	-0.7	-5.4	14.2%	-0.5%
CCN1CCN(c2cc(C)c3cc(NC(=O)c4ccc(C)c(C)c4)ccc3n2)CC1	-2.2	-9.4%	21.1	4.2	3.3	5.5%	4.5%
CN(CC(=O)Nc1ccc(F)cc1)C(=O)COC(=O)CNC(=O)c1sc2ccccc2c1Cl	·	-1.1%	-4.6	0.2	-1.7	·	-2.3%
Fc1cccc(NC(=S)NCc2ccc(Cl)cc2)c1	2.6	1.2%	-12.4	-0.5	-0.9	7.2%	3.1%

Individual results from the results shown:
`Fc1cccc(NC(=S)NCc2ccc(Cl)cc2)c1` – TRPML1 ag: -0.5
`COc1cc(Cl)c(CNC[C@H]2O[C@@H](n3ccc(=O)[nH]c3=O)[C@H](O)[C@@H]2O)c(Cl)c1O` – PINK1 expr mod: 1.4%
`COc1cc(NC(=O)Cn2nc(C(F)(F)F)c3c2CCCC3)cc(OC)c1OC` – ClpP mod: 2.0%&1.1%
`CCOC(=O)c1cc(=O)cc(C(=O)OCC)o1` – Menin-MLL FL inh: -0.2

High-throughput results as filed in PubChem BioAssay.
